# Screening results: PubChem, National Center for Advancing Translational Sciences (NCATS)
# D2 PAM: positive allosteric modulators of human D2 dopamine receptor; P14416; DiscoveRx D2 beta-arrestin cells, luminescence, 90 min; 100% = 57 uM dopamine signal; potentiation, % (test concentration not listed); 360,000 compounds, 0.23% hits; active = potentiation of 50% or more; inconclusive = 30% to 50%; inactive = 30% or less;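 note: compound concentration not given in the record; tested on top of an EC20 dose of dopamine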
#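 PathHunter D2 cells, attached overnight at 37 deg C, received compound in DMSO plus dopamine at EC20 (50 nM final) for 90 min at 37 deg C. Beta-arrestin recruitment was read as luminescence after 1 h with detection reagent at ambient temperature.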
# Six1-Eya2 inh: inhibitors of human Six1/Eya2 interaction. activity change, % (concentration not given with the values). 360,000 compounds, 0.56% hits. AlphaScreen GST-Six1/His-Eya2 binding, biochemical; hits give low values; control for the full effect not named in the record. Q15475+O00167. AID 651725; in the data active = activity change below about -65%; inconclusive = about -30% to -65%; inactive = above about -30%; note: % is set by controls: 0 for no effect and ±100 for the full control effect
# Target sequence (O00167 whole entry, looked up): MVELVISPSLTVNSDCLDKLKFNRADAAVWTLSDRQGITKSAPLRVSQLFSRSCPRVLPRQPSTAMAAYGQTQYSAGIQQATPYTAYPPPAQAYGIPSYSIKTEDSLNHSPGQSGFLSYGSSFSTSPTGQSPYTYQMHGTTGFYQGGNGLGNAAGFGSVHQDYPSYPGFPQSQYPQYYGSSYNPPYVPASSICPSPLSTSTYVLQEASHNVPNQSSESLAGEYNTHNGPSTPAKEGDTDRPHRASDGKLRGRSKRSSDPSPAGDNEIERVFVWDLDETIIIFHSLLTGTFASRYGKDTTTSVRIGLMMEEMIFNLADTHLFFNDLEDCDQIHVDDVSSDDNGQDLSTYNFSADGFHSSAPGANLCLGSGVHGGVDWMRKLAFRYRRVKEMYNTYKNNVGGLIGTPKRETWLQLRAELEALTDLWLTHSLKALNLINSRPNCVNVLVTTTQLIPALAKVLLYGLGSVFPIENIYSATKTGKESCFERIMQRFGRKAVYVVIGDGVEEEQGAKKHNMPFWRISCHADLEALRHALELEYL
# Target sequence (Q15475 whole entry, looked up): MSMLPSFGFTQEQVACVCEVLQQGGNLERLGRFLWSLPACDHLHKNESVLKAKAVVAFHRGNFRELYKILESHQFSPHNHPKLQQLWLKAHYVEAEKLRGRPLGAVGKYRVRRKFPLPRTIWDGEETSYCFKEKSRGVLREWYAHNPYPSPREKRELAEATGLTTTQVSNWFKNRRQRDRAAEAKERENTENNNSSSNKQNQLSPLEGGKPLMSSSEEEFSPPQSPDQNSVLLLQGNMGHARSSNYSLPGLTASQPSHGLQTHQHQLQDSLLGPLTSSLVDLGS
#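 Compounds are tested against tagged Six1 and Eya2 proteins bridged by glutathione donor and nickel acceptor beads; after a one-hour incubation at 37 °C without light, AlphaScreen emission is recorded.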
# PINK1 expr mod: modulators of PINK1 expression. PINK1 immunofluorescence, high-content cytometry, 24 h. Potency, µM (series often up to 76.6 µM), for inactives: top-dose activation (PINK1 increase), usual class: activators. 410,000 compounds, 0.2% hits; active = well fitted activation curve with a large enough effect; inconclusive = small, poorly fitted or top-dose-only effect; inactive = flat fitted curve, though single readings scatter; cell line not stated here;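 note: potency is the fitted concentration of half-maximal effect; % of control where 0% means no effect; nearly all actives have a fitted effect of over 65% in size; a mitochondrial uncoupler was the plate control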
#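 Readout is PINK1 immunofluorescence, quantified alongside mitochondrial, cell and nuclear markers by laser-scanning microplate cytometry. Cells from a stable line were exposed to compound titrations (5 concentrations) for 24 hours, with CCCP controls.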
# D2 agonist: activates the human D2 dopamine receptor; activation, % (test concentration not listed); P14416; DiscoveRx PathHunter D2 beta-arrestin, luminescence, 90 min; 100% = 57 uM dopamine signal; 360,000 compounds, 0.084% hits; in the data active = activation above about 40%; inconclusive = about 15% to 40%; inactive = below about 15%; note: compound concentration not given in the record; the text of the record calls up to 30% inactive
#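 Agonist mode: compounds alone added to overnight-plated D2 PathHunter cells for 90 min at 37 C, with 57 uM final dopamine (EC100) defining full response. Beta-arrestin recruitment detected by chemiluminescent reagent, read after 1 h at ambient temperature.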
# TRPML1 blocker: inhibitors of human TRPML1 channel; TRPML1-inducible cells, Ca2+ dye fluorescence, FDSS; hits give low values; inhibition of EC80 agonist-evoked calcium signal; AID 624415; Q9GZU1; activity change, negative = inhibition, % (no concentration beside the values); 390,000 compounds, 0.02% hits; in the data active means activity change below about -50%; inconclusive means about -30% to -50%; inactive means above about -30%;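 note: stimulus is agonist 54-4 at its EC80 concentration; % is set by controls: 0 for no effect and ±100 for the full control effect; compound concentration not given in the record; the text of the record puts the active cut at -80%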
#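 Tet-induced TRPML1-DL cells loaded with Ca8 no-wash calcium dye were read kinetically on FDSS. Compound addition was followed by EC80 agonist 54-4 (4 uM final); inhibition was read over 110 s.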
# TRPML1 ag: human mucolipin-1 channel agonism. Q9GZU1. TRPML1-expressing cells, Ca2+ dye fluorescence, FDSS; host cell line not named in the record; reference of the full effect not given here. activation, % (concentration not given with the values). 410,000 compounds, 0.12% hits; in the data active = activation above about 50%; inconclusive = about 30% to 50%; inactive = below about 30%; note: 0% is about no effect; the text of the record puts the active cut at 80%
#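 Tetracycline-induced TRPML1-DL cells are seeded and incubated overnight before loading with a no-wash Ca2+ dye and quencher. Agonist activity is taken from the 110 s fluorescence read following compound pin-transfer on an FDSS, before EC80 54-4 challenge.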
# Starred values were filed as active, the others as inactive; ? = inconclusive; nt = no result given; & = joins results of further samples; [ ] = another dose, or the depositor's remark.
SMILES,D2 PAM,Six1-Eya2 inh,PINK1 expr mod,D2 agonist,TRPML1 blocker,TRPML1 ag
CCC(C)[C@H]1CNC(=S)N1CCC12CC3CC(CC(C3)C1)C2 (some centres not stated),-8,4,3.8%,0.1,4,0.8
COc1ccc2c(c1)c1c(c(=O)n(Cc3ccccc3)c(=O)n1CC(=O)NCc1ccccc1)n2C,nt,nt,0.9%,nt,7,1.7
Cc1cccc(C(=O)OCC(=O)c2cccc(Br)c2)c1O,-6,0,7.0%,-1.7,-8,0.2
N#Cc1cc2c(nc1SCc1ccncc1)CCC2,-14,2,-6.7%[38.3 µM],1.7,13,-0.1
CCOc1ccc(C2C(C#N)=C(N)SC(N)=C2C#N)cc1OCC,-14,-4,2.3%,-3.6,11,1.8
COc1ccc(NS(=O)(=O)c2cc(-c3onc(C)c3C)ccc2C)c(OC)c1,nt,nt,-0.2%,nt,-3,3.2
COC(=O)CC(NC(=O)c1ccco1)c1ccc(C(C)C)cc1 (configuration not stated),-23,2,1.9%,-4.7,4,5.8
NC(=O)NO,-3,1,-0.4%,-4.5,9,-0.1
CCCN1CCN(C(=O)CN2C(=O)COc3ccc(S(=O)(=O)N(CC)CC)cc32)CC1,-4,5,3.9%,-3.1,-11,-1.0
Cc1ccc2c(CN3CCC(C(N)=O)CC3)cc(=O)oc2c1C,-5,7,1.3%,-2.6,-1,-0.3
CSCCC(NC(=O)c1ccco1)C(=O)NCC(C)(C)N1CCOCC1 (configuration not stated),2,25,0.7%,0.9,5,-1.2
CCn1cc(CN2CCC(n3nccc3NC(=O)CCOc3ccccc3)CC2)c(C)n1,-32,2,-0.9%,-3.1,-4,-0.2
N#Cc1ccc(/C=C/C(=O)c2cccnc2)cc1,-15,3,-3.4%,2.8,9,0.5
O=C(c1cnn2c(C(F)(F)F)cc(-c3ccco3)nc12)N1CCc2ccccc2C1,-16,8,0.2%[38.3 µM],-1.3,9,5.7
CCc1ccc(S(=O)(=O)c2c[nH]c3cc(OC)c(OC)cc3c2=O)cc1,nt,nt,6.0%,nt,5,1.3
COc1ccc(NC(=O)CNC(=O)CC23CC4CC(CC(C4)C2)C3)c(OC)c1,-11,-6,0.2%,3.0,-7,0.0
CCc1ccc(NC(=S)N2CCCCCCC2)cc1,3,-3,4.3%,-4.5,-11,0.4
CCCC(=O)Nc1ccc2c(c1)c1ccccc1n2CC,-21,1,2.5%,-0.7,29,0.2
COc1ccccc1CNC(=O)COC(=O)COc1ccccc1Cc1ccccc1,13,5,-0.2%,-6.6,32,6.4
C#CCCc1ccccc1/C=[N+](/C)[O-],14,5,2.7%,7.8,2,-1.1
O=C(CSc1nc(C2CC2)nc2ccccc12)N1c2ccccc2Sc2ccc(C(F)(F)F)cc21,60*,-9,94%[38.3 µM],3.6,1,-0.2
CC1(C(=O)Nc2cccc3ccccc23)CC1(Br)Br (configuration not stated),4,0,3.2%,4.9,-11,2.8
CCCCN1CC(C)(C)[C@H](CC(=O)NC)C1=O,1,10,-2.0%,1.4,23,1.0
COc1cc(C(F)(F)F)nc2c(Br)c(C(C)(C)C)nn12,-7,9,6.7%,-0.2,-6,-0.1
CCN1CCN(C(=O)C2CCN(S(=O)(=O)c3cccc4cccnc34)CC2)CC1,-8,-3,0.5%,-5.3,-5,-0.3
Cn1c(Cc2ccccc2)nnc1SCC(=O)NCCc1ccccc1,-5,3,-0.8%,-6.0,7,0.3
O=C(OCn1ncc(Cl)c(Cl)c1=O)c1ccc(C(F)(F)F)cc1,-11,-1,-5.1%,-5.3,-5,0.3
OCc1cn(-c2ccccc2)nc1-c1ccc2c(c1)OCCO2,-35,0,-2.1%,-1.6,3,0.5
COc1cccc(C(=O)Nc2ncc3c(n2)CC(C)CC3=O)c1 (configuration not stated),-8,-2,1.2%[38.3 µM],-2.1,10,-0.6
COc1ccc(N(CC(=O)N/N=C/c2cccnc2)S(=O)(=O)c2ccccc2)c(OC)c1,15,-5,-0.1%,1.9,-4,-0.4

# Part of the list above in order of SMILES length, descending:
SMILES,D2 PAM,Six1-Eya2 inh,PINK1 expr mod,D2 agonist,TRPML1 blocker,TRPML1 ag
O=C(CSc1nc(C2CC2)nc2ccccc12)N1c2ccccc2Sc2ccc(C(F)(F)F)cc21,60*,-9,94%[38.3 µM],3.6,1,-0.2
COc1ccc(N(CC(=O)N/N=C/c2cccnc2)S(=O)(=O)c2ccccc2)c(OC)c1,15,-5,-0.1%,1.9,-4,-0.4
CCN1CCN(C(=O)C2CCN(S(=O)(=O)c3cccc4cccnc34)CC2)CC1,-8,-3,0.5%,-5.3,-5,-0.3
O=C(OCn1ncc(Cl)c(Cl)c1=O)c1ccc(C(F)(F)F)cc1,-11,-1,-5.1%,-5.3,-5,0.3
COc1cccc(C(=O)Nc2ncc3c(n2)CC(C)CC3=O)c1 (configuration not stated),-8,-2,1.2%[38.3 µM],-2.1,10,-0.6
OCc1cn(-c2ccccc2)nc1-c1ccc2c(c1)OCCO2,-35,0,-2.1%,-1.6,3,0.5
CC1(C(=O)Nc2cccc3ccccc23)CC1(Br)Br (configuration not stated),4,0,3.2%,4.9,-11,2.8
CCCCN1CC(C)(C)[C@H](CC(=O)NC)C1=O,1,10,-2.0%,1.4,23,1.0
CCCC(=O)Nc1ccc2c(c1)c1ccccc1n2CC,-21,1,2.5%,-0.7,29,0.2
C#CCCc1ccccc1/C=[N+](/C)[O-],14,5,2.7%,7.8,2,-1.1

# Next section.
SMILES,D2 PAM,Six1-Eya2 inh,PINK1 expr mod,D2 agonist,TRPML1 blocker,TRPML1 ag
CC1=NOC(=O)/C1=C\c1ccc(-c2ccc(Br)cc2)o1,-9,-9,-1.1%,-6.9,7,2.5
Cc1ccc(/C(O)=C2/C(=O)C(=O)N(CC(=O)O)C2c2ccc([N+](=O)[O-])cc2)cc1 (configuration not stated),-2,0,1.1%,-5.1,10,0.2
O=C1CSC2(C(=O)N(Cc3cccc(C(F)(F)F)c3)c3ccccc32)N1c1ccc(F)c(F)c1 (configuration not stated),nt,nt,-4.9%,nt,-4,1.1
CCn1cnc2c(oc3ccccc32)c1=O,2,-2,0.4%,3.4,16,0.2
O=C(CCCn1c(=S)[nH]c2ccsc2c1=O)NCc1ccco1,5,-1,0.9%[38.3 µM],7.6,-8,-0.5
CC(C)(C)C(=O)NC(=C(Cl)Cl)P(=O)(O)O,-16,2,4.3%[38.3 µM],-3.7,-1,-0.5
COc1ccc(NC(=O)/C(C#N)=C\c2ccc(Br)o2)cc1,-14,-16,0.8%,3.3,7,-0.1
Cc1ccccc1SCC(=O)OCC(=O)N1CC(=O)Nc2ccccc21,-1,0,1.5%,1.5,12,2.6
NC(=S)NNc1cc(Cl)cc(Cl)c1,17,-6,-0.7%,4.5,-10,0.3
CNC(=O)Nc1ccccc1F,-13,20,-0.2%,-4.5,80,0.4
O=C(N/N=C/c1ccccn1)c1cc(C2CC2)nc2ccccc12,8,?,1.6%,0.0,8,0.4
Clc1ccc(-c2csc(-c3cccnc3)n2)s1,-22,16,-1.5%,-6.3,11,-1.0
Cc1ccc(C)c(N2CCN(C(=O)CCCn3ncn4c(cc5occc54)c3=O)CC2)c1,-13,-5,-0.6%&0.3%,-1.0,-5&-6,0.5&-0.3
Cc1cccc(OC(=O)c2cccnc2)c1C,-2,0,0.1%,-2.1,1,-0.5
CCOc1ccc(S(=O)(=O)NCCC(=O)NCC(c2ccc(OC)cc2)N2CCCCC2)cc1 (configuration not stated),-33,4,1.2%,-5.9,21,0.2
CC(=O)Nc1ccc(S(=O)(=O)NNC(=O)COc2cc(C)ccc2C(C)C)cc1,-15,-8,-0.8%,-2.9,-23,1.1
CN(Cc1ccccc1)C(=O)CN1CCN(C(c2ccccc2)c2ccccc2)CC1,-35,2,2.0%,-8.2,-10,0.4
Cc1ccc(NC(=O)CCC(=O)NNC(=O)COc2cccc3ccccc23)c(C)c1,6,26,nt,1.8,-12,0.9
CSc1ccc(S(=O)(=O)Nc2ccccc2C(=O)N2CCOCC2)cc1,-7,4,-1.0%,-4.4,13,0.8
Cc1ccc(NC(=O)CN2C(=O)CSc3ccc(S(=O)(=O)N4CCCC4)cc32)cc1F,nt,nt,-0.9%,nt,3,1.5
O=C(c1ccco1)N1CCN(C(=O)c2ccccc2OC(=O)C23CC4CC(CC(C4)C2)C3)CC1,-5,-3,0.8%,-1.2,-5,1.0
COc1cc(NC(=O)c2cccc3c2C(=O)N(Cc2cccnc2)C3)cc(OC)c1OC,-1,1,0.3%,1.8,0,0.0
O=C(Nc1cccc(S(=O)(=O)N2CCCCC2)c1)c1ccc2c(=O)n3c(nc2c1)CCCCC3,2,-24,4.6%,4.9,13,0.6
CCOC(=O)c1ccc(NC(=O)CC2C(=O)N(c3ccccc3)C(=O)N2Cc2cccs2)cc1 (configuration not stated),nt,nt,0.5%,nt,22,0.4
CCCCCCCc1ccc(C2NC(=S)NC3=C2C(=O)c2ccccc23)cc1 (configuration not stated),-7,1,7.9%,-5.8,nt,nt
COc1cccc(NC(=O)Nc2ccc(CC(=O)O)cc2)c1,0,5,-0.5%,-2.0,-8,0.4
S=C1NCCN1CC1CCN(CC2CCCC2)CC1,-10,-18,3.7%,-2.5,8,-0.6
Cc1cc(C)cc(NC(=O)CS(=O)(=O)c2cccc3nsnc23)c1,-10,-9,0.9%,-3.5,30,1.0
Cc1nc(-c2ccccn2)nc(N2CCOCC2)c1Cl,-17,54,0.8%,-3.3,-2,-1.0
CCc1ccc(C(=O)OCC(=O)NCCNC(=O)COC(=O)c2ccc(CC)cc2)cc1,12,13,1.8%,0.1,-6,0.2
CC1CCCN(C(=O)C(=O)c2cn(CC(=O)N3CCCCCC3)c3ccccc23)C1 (configuration not stated),-8,-3,4.1%,0.4,-8,0.7
CN(C)S(=O)(=O)c1ccc(C(=O)OCn2nnc3ccccc3c2=O)cc1,6,-1,2.9%,0.5,17,-0.3
CC(=O)Nc1ccc(CN2CCN(CCc3ccccc3)C(CCO)C2)cc1 (configuration not stated),-12,2,-0.8%,-0.5,-6,0.1
COc1ccc(NC(=O)C(C)NS(=O)(=O)c2ccc(NC(C)=O)cc2)cc1Cl (configuration not stated),-11,3,4.7%[38.3 µM],-1.7,-15,-0.8
O=C(Nc1ccc(Cl)cc1)c1ccc2c(c1)N(Cc1ccccc1)C(=O)c1ccccc1S2(=O)=O,nt,nt,1.7%,nt,-12,1.8
NC(=S)N=Nc1c(O)n(CC(=O)Nc2ccccc2)c2ccccc12,-7,-3,1.8%,3.1,1,0.0
O=C(N/N=C/c1ccc2c(c1)OCO2)c1ccc(Cl)cc1Cl,-12,-9,8.0%,1.7,-17,-0.2
